Screens from PubChem BioAssay.
Sa growth 42C = S. aureus growth inhibition at 42 and 30 °C, primary screen, LtaS inhibitor project, RN4220, two temperatures; OD600, 20 h, 42 °C; active compounds read low; relative growth, % (test concentration not listed); 170,000 tested, 0.53% active;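 active = growth at 42 °C up to 50% and 20 or more points under that at 30 °C, or under 10% at both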;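 also: 300 nL library stock went into each well; scaled to the means of positive and negative controls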
GIV-Gai inh = inhibitors of GIV peptide binding to Galpha-i3, primary screen, biochemical, fluorescence polarization, FITC-GIV GBA peptide, rat Galphai3; 90 min; active compounds read low; scaled: aluminum fluoride 0%, vehicle 100%; percent of control (FP), % (test concentration not listed); 210,000 tested, 0.42% active; AID 1224905, 2016;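 active = replicate mean at 85% of control or lower, very high polarization wells dropped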;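 also: lower values mean more displacement of the GIV peptide from Galpha-i3; wells of about 15 µL received 100 nL stock; the first replicate is given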
Target sequence (P08753 whole entry, looked up): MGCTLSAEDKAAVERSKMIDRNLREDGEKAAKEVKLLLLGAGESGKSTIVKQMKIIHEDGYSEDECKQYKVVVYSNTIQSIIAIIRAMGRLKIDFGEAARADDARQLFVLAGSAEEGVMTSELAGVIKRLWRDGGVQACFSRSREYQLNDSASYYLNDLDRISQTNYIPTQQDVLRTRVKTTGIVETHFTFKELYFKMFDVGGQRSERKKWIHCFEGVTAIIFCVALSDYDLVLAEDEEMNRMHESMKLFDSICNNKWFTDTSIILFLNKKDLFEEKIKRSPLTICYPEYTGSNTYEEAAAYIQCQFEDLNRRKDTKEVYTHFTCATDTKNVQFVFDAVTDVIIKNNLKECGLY
HCMV UL50-53 inh = inhibitors of HCMV UL50-UL53 interaction, biochemical, HTRF | HCMV UL50-UL53 nuclear egress complex (human cytomegalovirus) | normalized percent inhibition | 190,000 tested, 0.15% active | AID 1918969, 2023 | inhibition, % (test concentration not listed);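 active = both replicates at 50% or more, plus weaker picks with an unusually low signal ratio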;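 also: stock transfer was 100 nL into about 20 µL; 0% = negative control wells and 100% = wells with untagged competitor protein; inactives centre near -12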
Sa growth 42C second temp = second read-out of Sa growth 42C, no call of its own (marks repeat the call); relative growth, %; measured here: growth at 30 °C;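 optical density after 20 h as mean of two plates; 100% = untreated growth and lower means inhibition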
Numbers without * were called inactive; · = not tested or not shown; & = joins results of further samples.

SMILES	Sa growth 42C	Sa growth 42C second temp	GIV-Gai inh	HCMV UL50-53 inh
COc1cc2c(=O)n(Cc3ccc(C(=O)NC4CC4)cc3)c(=O)n(Cc3ccc(Cl)cc3)c2cc1OC	·	·	109	-8
O=C(CCc1nc2cccnc2n1-c1ccccc1)NCC1CCCO1 (configuration not stated)	79	84	103	·
COc1ccc(N2C(=O)/C(=C/c3cn(Cc4ccccc4)c4ccccc34)NC2=S)cc1	·	·	101	-6
CCC(C)c1ccc(OCC(=O)Nc2cccc(-c3nc4ncccc4o3)c2C)cc1 (configuration not stated)	77	77	104	·
Cc1csc(NC(=O)C(Cc2ccccc2)NS(=O)(=O)c2ccc(Br)s2)n1 (configuration not stated)	80	87	105	-30
CCOC(=O)/C(C#N)=C1/C=C(C)c2ccccc2N1	127	78	·	-35
COc1cccc(NC(=O)c2ccc3nc(Cc4ccccc4)oc3c2)c1	91	77	99	·
COC(=O)CSc1n[nH]c(CNc2cccc(C)c2)n1	113	98	100	-21
CCC1=CC(=O)C=C(CC)C1=O	98	76	112	-8
COc1ccc(Br)cc1CNC(=O)CCSCc1ccc(Cl)cc1	104	103	106	·
CC(C)c1cc(C(=O)NC(C)c2ccccc2)no1 (configuration not stated)	111	93	101	-11
COc1cc(NC(=O)c2ccc3c(SCC(=O)O)c4c(nc3c2)CCC4)cc(OC)c1OC	121	90	98	·
COc1ccc(N2CCN(C(=O)c3cn(C)c(=O)c4c3c3ccccc3n4C)CC2)cc1	87	91	100&96	-43&13
O=C(O)CCN1C(=O)C2C3c4ccccc4C(c4ccccc43)C2C1=O (configuration not stated)	111	91	·	7
O=C(c1ccc(Cl)cc1Cl)N1CCCC1	106	109	101	-6
Cc1ccc(C(=O)N2CC(C)CC(C)C2)cc1 (configuration not stated)	91	92	·	-9
Cc1c(C(=O)NCc2ccc(Cl)cc2)sc2nc3n(c(=O)c12)CCCC3	114	92	105	0
Cc1cccn2c(=O)c3cc(C(=O)NC(C)c4ccccc4)sc3nc12 (configuration not stated)	117	90	101	·
CCOC(=O)CN1N=NC2C(=O)N(c3ccccc3)C(=O)C21 (configuration not stated)	101	91	98	-16
COc1ccc(CNC(=O)c2cc3n(n2)CC(C)(C(=O)NC2CCCCC2)N(C)C3=O)cc1 (configuration not stated)	·	·	102	-27
O=C(O)CSc1nc2ccccc2[nH]1	·	·	99	-6
COc1cccc(NC(=O)CSC2=Nc3ccccc3C3=NC(CCC(=O)NC4CCCCC4)C(=O)N23)c1 (configuration not stated)	108	93	103	·
Cc1ccc(CN(C(=O)COc2ccc(Cl)cc2C)C2CCS(=O)(=O)C2)o1 (configuration not stated)	116	72	100	-3
Cc1ccc(-n2c(SCC(=O)Nc3c(C)cccc3C)nc3ccccc3c2=O)cc1	92	90	·	-18
CCCNC(=O)Nc1cccc(-c2noc(Cc3ccc(F)cc3)n2)c1	·	·	108	-17
Cc1cc(C)cc(N(CC(=O)N2CCC(Cc3ccccc3)CC2)S(=O)(=O)c2c(C)noc2C)c1	·	·	105	-26
CCN=C(Nc1cc(-c2ccccc2OC)[nH]n1)SC	81	77	99	-10
Cc1c(NC(=O)c2cc(-c3cccc(Cl)c3)on2)c(=O)n(-c2ccccc2)n1C	101	98	98	2
Cc1cc(C)c2c(=O)c3ccccc3[nH]c2n1	78	86	109	-22
Oc1c(C(c2ccccc2F)N2CCC3(CC2)OCCO3)sc2nc(-c3ccco3)nn12 (configuration not stated)	126	91	100	·
CC1CCCCN1S(=O)(=O)c1ccc(NC(=O)C2COc3ccccc3O2)cc1 (configuration not stated)	94	68	101	19
O=C(CSc1nnc(CCN2CCOCC2)o1)Nc1ccccc1	·	·	103	3
CCCC(NC1CCS(=O)(=O)C1)C(=O)O (configuration not stated)	110	91	106	·
Cc1ccc(Cl)cc1NC(=O)Cn1cc(S(=O)(=O)Cc2ccccc2Cl)c2ccccc21	107	91	103	·
O=C(COC(=O)c1ccc(Cl)nc1)NC1CCCCC1	74	92	·	-27
O=C(c1ccc(S(=O)(=O)c2ccccc2)nc1)N1CCN(Cc2ccccc2)CC1	·	·	103	-14
O=C(NCCc1ccccc1)C1CCN(c2ncnc3c2sc2cccc(F)c23)CC1	84	81	107	1
CCCCNC(=O)c1ccc2c(=O)n(Cc3ccc(OC)cc3)c(=O)[nH]c2c1	92	89	105	-21
CC1Sc2ccc(S(=O)(=O)CCC(=O)N3CCCCC3)cc2NC1=O (configuration not stated)	102	95	102	13
Cc1cc(C(F)(F)F)c2c(C)nn(-c3ccc(C)c(C)c3)c2n1	·	·	104	-10
CCOC(=O)c1nc(Nc2ccccc2C)c2ccccc2n1	108	88	104	-19
Cc1cccc2cc(CN(C(=O)c3ccncc3)C3CCCC3)c3nnnn3c12	106	91	112	-9
O=C(CCn1cnc2ccccc2c1=O)Nc1cccc(Br)c1	·	·	99	-20
O=C(OCC1CCCO1)c1ccc2c(c1)N(Cc1ccccc1)C(=O)c1ccccc1S2(=O)=O (configuration not stated)	102	89	102&101	-19
COc1ccccc1NC(=O)NCCn1c(-c2ccc(F)cc2)nc2cccnc21	·	·	105	-25
C[C@]12C=CC(=O)C=C1CCC1C3C[C@@H](O)[C@](O)(C(=O)CO)[C@@]3(C)C[C@H](O)[C@@]12F (some centres not stated)	97	98	·	-21
CNC(=O)C1=C(C)Nc2nc3ccccc3n2C1c1cccs1 (configuration not stated)	98	98	·	2
CN(C(=O)c1noc2c1CCc1ccccc1-2)c1ccccc1	95	99	99	1
O=c1ccc(N2CCCN(S(=O)(=O)c3ccc(Br)cc3)CC2)nn1-c1ccccc1	·	·	102	-26
COc1ccc(C(=O)COC(=O)CSc2nc3ccccc3s2)cc1	·	·	104	-11
Cc1cccn2c(=O)c3cc(C(=O)NC4CCCCCC4)sc3nc12	107	85	96	·
O=C(CSc1cccc2cccnc12)NC(c1ccccc1)c1ccccc1	112	79	·	-29
Cc1ccc(/C=C/c2onc(C)c2S(=O)(=O)N2CCC(C(=O)NCc3ccc(N(C)C)cc3)CC2)cc1	95	96	102	·
CCSc1nnc(NC(=O)C2CCCCC2C(=O)OCC(F)(F)C(F)F)s1 (configuration not stated)	85	87	96	-6
COc1ccc(C(=O)Nc2nc3nc(C)c(Cl)c(=O)n3[nH]2)cc1	103	90	103	-19
CCOc1ccc2nc(N3CCCC(C(=O)Nc4ccc(CN5CCC(C)CC5)cc4)C3)sc2c1 (configuration not stated)	·	·	104	9
CC(C)OCCCNC(=O)C(=O)NCc1n[nH]c(=O)c2ccccc12	·	·	108	-13
COc1ccc(NC(=O)CCC(=O)Oc2ccc(C)cc2)cc1	104	98	·	7
Cc1cc(C)c2oc(-c3ccc(NC(=O)c4cc([N+](=O)[O-])ccc4Cl)cc3)nc2c1	·	·	100	-30
O=C(Nc1cc2c(cc1C(=O)c1ccccc1)OCCO2)c1ccc(Br)cc1	102	96	103	18

Remaining list, next part.
SMILES	Sa growth 42C	Sa growth 42C second temp	GIV-Gai inh	HCMV UL50-53 inh
CCCNC(=O)Nc1cccc(-c2noc(/C=C/c3ccccc3)n2)c1	·	·	106	16
CCSc1nn(CC(=O)Nc2ccc(C(C)C)cc2)c(N)c1S(=O)(=O)c1ccc(OC)cc1	·	·	99	-22
Cc1ccc(-c2nc3cccnc3n2CCNS(=O)(=O)c2ccc(CC(C)C)cc2)cc1	·	·	114	-20
CC(C)c1ccc(NC(=O)NN2CCOCC2)cc1	103	78	101	·
Cn1cccc1C(=O)c1ccc(Cl)cc1	88	91	·	-20
CNC(=O)CCc1nc2sc3c(c2c(=O)[nH]1)CCC(C(C)(C)C)C3 (configuration not stated)	·	·	100	-12
O=C(Nc1ccccc1)C1CCCN1C(=O)NCc1ccccc1 (configuration not stated)	91	81	101	9
COc1ccc(CCNC(=O)CSc2nnc(-c3sc4ccccc4c3Cl)o2)cc1OC	·	·	97	-14
O=C(OCc1cc(Cl)cc2c1OCOC2)c1ccc(CN2CCCC2=O)cc1	99	84	·	-3
O=c1ccn([C@@H]2O[C@H](COP(=O)(O)OP(=O)(O)O)[C@@H](O)[C@H]2O)c(=O)[nH]1	·	·	100	12
O=c1cc(CSc2nc3ccccc3c(=O)[nH]2)c2ccc(O)cc2o1	73	76	·	-26
COCCCNS(=O)(=O)c1ccc(N2CCCCS2(=O)=O)cc1	94	91	99	·
C/C(N)=C(/C#N)C(=O)CSc1nc2cc(S(=O)(=O)N3CCCCC3)ccc2o1	88	88	·	-28
O=c1/c(=C\c2ccc(N3CCCC3)c(F)c2)sc2nc3ccccc3n12	98	96	131	-1
CC(=O)c1cccc(NC(=O)C2CCCN(c3nnc(-n4cccc4)s3)C2)c1 (configuration not stated)	94	81	109	·
CSc1nnc(-c2cc(C)on2)n1C	111	97	99	-6
CCOc1ccc(C2C(C(=O)OCCOC)=C(C)NC3=C2C(=O)CC(c2ccc(OC)c(OC)c2)C3)cc1 (configuration not stated)	·	·	104	-25
COc1cccc(C2CCN(C(=O)c3cccc4ccccc34)CC2)c1	109	92	100	-37
Cc1[nH]nc2c1CCCC2	89	79	101	-26
CCOC(=O)c1c(NC(=O)Cc2nn(C)c(=O)c3ccccc23)sc(C)c1C	·	·	103	3
COc1ccc(CC(=O)N2c3ccccc3CCc3ccccc32)cc1	83	97	94	·
O=C(CCc1ccccc1)N(Cc1cccnc1)c1nc2c(F)cc(F)cc2s1	102	97	110	·
COc1ccc(/C=C2\N=C(c3ccc(OC)c([N+](=O)[O-])c3)OC2=O)cc1OC(C)=O	·	·	103	-14
CCc1ccccc1NC(=O)CN(c1ccccc1OC)S(=O)(=O)c1ccc(C)cc1	93	82	102	-25
Cc1ccc2c(c1)NCC(C(=O)N1CCN(C)CC1)O2 (configuration not stated)	86	85	106	6
O=C(CSc1ccccn1)Nc1ccccn1	76	89	·	3
COc1ccccc1OCC(=O)Nc1cc(C)nn1-c1ncnc2c1cnn2-c1ccc(Cl)cc1	·	·	99	-18
CCC(Oc1ccccc1F)C(=O)Nc1onc2c1CCCC2 (configuration not stated)	·	·	99	-27
CC1=C(C(=O)OCC2CCCO2)C(c2coc3ccc(Cl)cc3c2=O)C2=C(CCCC2=O)N1 (configuration not stated)	·	·	103	-40
COc1cccc(Cn2c(C)c(C3=CCN(S(=O)(=O)c4cn(C)cn4)CC3)c3ccccc32)c1	·	·	107	-30
C=CCNC(=O)c1c(O)c2cccc3c2n(c1=O)CCC3	96	111	102	4
O=S(=O)(c1ccc(S(=O)(=O)N(Cc2ccccc2)Cc2ccc(F)cc2)cc1)N1CCCC1	·	·	102	-18
CCC(NC(=O)Nc1cccc(C)c1)c1c(-n2cccc2)sc2c1CCN(C)C2 (configuration not stated)	123	104	107	·
Cc1ccc(-c2nn3c(-c4ccccn4)nnc3s2)cn1	·	·	105	-8
COc1cccc(Cc2nnc(-c3ccc4c(c3)OCO4)o2)c1	84	81	104	23
O=C(OCC(=O)N1CCCC1)c1c(Cl)cccc1Cl	83	94	·	4
CC1Cc2ccccc2N1C(=O)C1CCN(S(=O)(=O)Cc2ccccc2)CC1 (configuration not stated)	102	83	107	2
CC(=O)OC1OCCOC1NC(=S)Nc1ccc(C)cc1 (configuration not stated)	88	87	108	2
COc1ccc(S(=O)(=O)N(C)CC(N)=O)cc1	95	100	109	-4
CN(CC(=O)N1CCc2ccccc21)S(=O)(=O)c1ccc2c(c1)c(=O)n(C)c(=O)n2C	94	90	104	-5
CCOC(=O)c1c(CC(C)C)csc1NC(=O)C#Cc1ccccc1	116	93	·	3

Entries listed so far that have an aryl thioether with sulfur outside any ring, in the order listed:
SMILES	Sa growth 42C	Sa growth 42C second temp	GIV-Gai inh	HCMV UL50-53 inh
COC(=O)CSc1n[nH]c(CNc2cccc(C)c2)n1	113	98	100	-21
COc1cc(NC(=O)c2ccc3c(SCC(=O)O)c4c(nc3c2)CCC4)cc(OC)c1OC	121	90	98	·
O=C(O)CSc1nc2ccccc2[nH]1	·	·	99	-6
Cc1ccc(-n2c(SCC(=O)Nc3c(C)cccc3C)nc3ccccc3c2=O)cc1	92	90	·	-18
O=C(CSc1nnc(CCN2CCOCC2)o1)Nc1ccccc1	·	·	103	3
COc1ccc(C(=O)COC(=O)CSc2nc3ccccc3s2)cc1	·	·	104	-11
O=C(CSc1cccc2cccnc12)NC(c1ccccc1)c1ccccc1	112	79	·	-29
CCSc1nnc(NC(=O)C2CCCCC2C(=O)OCC(F)(F)C(F)F)s1 (configuration not stated)	85	87	96	-6
CCSc1nn(CC(=O)Nc2ccc(C(C)C)cc2)c(N)c1S(=O)(=O)c1ccc(OC)cc1	·	·	99	-22
COc1ccc(CCNC(=O)CSc2nnc(-c3sc4ccccc4c3Cl)o2)cc1OC	·	·	97	-14
O=c1cc(CSc2nc3ccccc3c(=O)[nH]2)c2ccc(O)cc2o1	73	76	·	-26
C/C(N)=C(/C#N)C(=O)CSc1nc2cc(S(=O)(=O)N3CCCCC3)ccc2o1	88	88	·	-28
CSc1nnc(-c2cc(C)on2)n1C	111	97	99	-6
O=C(CSc1ccccn1)Nc1ccccn1	76	89	·	3

Compounds as they come. Share with any hit: about 0.8%.
